MARV entry inh: Marburg virus entry inhibition | Marburg virus pseudotyped entry inhibition, cell reporter; control for the full effect not named in the record; about a third of the inactives were read at about 46 µM | Potency, µM (highest dose often 37.8 µM), inactives show at the highest dose activity change, negative = inhibition, actives largely listed as inhibitors | 1.8% of 300,000 active | AID 540276; active = well fitted inhibition curve with a large enough effect; inconclusive = small, poorly fitted or top-dose-only effect, or effect the other way; inactive = flat fitted curve, though single readings scatter; tested in HEK293 cells; about a fifth of its hits are not listed in these tables; also: % is scaled to controls: 0 for no effect and ±100 for the full control effect; luciferase read-out
Cruzain noTriton: cruzain (T. cruzi) inhibition without detergent; purified cruzain, Z-FR-AMC fluorescence, no detergent; 2.3% of 200,000 active; P25779; Potency, µM, without a hit: max response, negative = inhibition, usual class: inhibitors;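 also: plate controls were enzyme without inhibitor for no effect and buffer without enzyme for full effect; nearly all actives have a fitted effect of over 40% in size; top concentration of the series not given in the record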
Target sequence (P25779 123-467 limits assumed): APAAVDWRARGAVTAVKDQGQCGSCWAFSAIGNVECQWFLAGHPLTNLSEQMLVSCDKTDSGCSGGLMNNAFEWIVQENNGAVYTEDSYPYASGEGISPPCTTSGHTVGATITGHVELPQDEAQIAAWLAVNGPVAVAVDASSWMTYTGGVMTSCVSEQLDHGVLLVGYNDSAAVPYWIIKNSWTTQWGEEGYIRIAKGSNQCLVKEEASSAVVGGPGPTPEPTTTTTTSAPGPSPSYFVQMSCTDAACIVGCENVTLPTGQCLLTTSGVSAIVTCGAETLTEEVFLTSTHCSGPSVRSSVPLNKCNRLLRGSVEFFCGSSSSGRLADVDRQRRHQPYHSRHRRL
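Purified cruzain at 1.5 nM, pre-incubated 15 min with compound at room temperature in 100 mM sodium acetate pH 5.5, 5 mM DTT, 0.00005% Triton X-100. Reaction started with 2 uM Z-FR-AMC; AMC fluorescence increase over 60 s gives rate.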
SARS PLpro yeast: blocks SARS-CoV papain-like protease in a yeast assay; S. cerevisiae expressing SARS-CoV PLpro, growth rescue; control for the full effect not named in the record; Potency, µM (highest dose often 32.9 µM), inactives show at the top dose activity, positive = growth rescue; 0.19% of 330,000 active; active means well fitted rising curve with a large enough effect; inconclusive means small, poorly fitted or top-dose-only effect; inactive means no such curve, though single readings can be large or run the other way; also: 0% is about no effect; nearly all actives have a fitted effect of over 55% in size; growth read by luminescence after 48 h
StopGo reporter: FMDV 2A StopGo reporter, luciferase signal. human cells with a luciferase reporter of 2A StopGo recoding; control for the full effect not named in the record. Potency, µM (highest dose often 57.9 µM), inactives show at the highest dose signal change, negative = less light. 1.2% of 410,000 active. AID 1159524; active = well fitted falling curve with a large enough effect; inconclusive = small, poorly fitted or top-dose-only effect; inactive = no such curve, though single readings can be large or run the other way; tested in HEK293T cells; also: % is scaled to controls: 0 for no effect and ±100 for the full control effect; nearly all actives have a fitted effect of over 45% in size; luciferase light after 4 h
LASV entry inh: blocks Lassa virus binding to or entry into cells; Potency, µM (series often up to 37.9 µM), inactives show at the highest dose activity change, negative = inhibition, most hits filed as inhibitors; AID 540256; Lassa virus pseudotype entry inhibition, cell reporter; control for the full effect not named in the record; 1.2% of 300,000 active; active means well fitted inhibition curve with a large enough effect; inconclusive means small, poorly fitted or top-dose-only effect, or effect the other way; inactive means flat fitted curve, though single readings scatter; tested in HEK293 cells; also: % is scaled to controls: 0 for no effect and ±100 for the full control effect; nearly all actives have a fitted effect of over 50% in size; luciferase read-out
Cruzain inh Det: cruzain (T. cruzi) inhibition with detergent; P25779; Potency, µM, for the others: max response, negative = inhibition, actives largely listed as inhibitors; AID 1478; purified cruzain, Z-FR-AMC fluorescence, 0.01% Triton; 0.43% of 200,000 active;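 also: plate controls were neutral wells for no effect and buffer without enzyme for full effect; nearly all actives have a fitted effect of over 40% in size; top concentration of the series not given in the record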
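In this qHTS format, compounds are incubated with 1.5 nM cruzain for 15 min at room temperature before 2 uM Z-FR-AMC is added. Release of AMC is followed at 360/450 nm, and progress is taken as the 60 s fluorescence difference.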
RE007 growth inh: less growth of the S. pombe RE007 Vpr strain; 0.21% of 360,000 active; S. pombe RE007 Vpr strain, BacTiter-Glo ATP luminescence, 24 h; control for the full effect not named in the record; Potency, µM (top dose mostly 92.2 µM), for inactives: at the highest dose activity change, negative = less growth; active = well fitted falling curve with a large enough effect; inconclusive = small, poorly fitted or top-dose-only effect; inactive = no such curve, though single readings can be large or run the other way;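 also: % is scaled to controls: 0 for no effect and ±100 for the full control effect; nearly all actives have a fitted effect of over 50% in size; the assay follows cell death caused by Vpr and the record does not say whether a fall means rescue or toxicity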
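Fission yeast RE007 carrying one integrated HIV-1 vpr copy, seeded at OD 0.01 in PMG+AL medium with 23 nL pinned compound. Grown 24 h at 30 degrees; viability read by BacTiter-Glo luminescence after 5 min.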
NS1 inh: blocks influenza NS1 protein function | 0.4% of 270,000 active | Potency, µM (doses to about 46.1 µM), for inactives: at the top dose activity, positive = more growth | S. cerevisiae slowed by influenza A NS1, growth recovery by OD600; active means well fitted rising curve with a large enough effect; inconclusive means small, poorly fitted or top-dose-only effect; inactive means no such curve, though single readings can be large or run the other way; also: nearly all actives have a fitted effect of over 50% in size
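A cell-based growth assay was used: compounds that relieve NS1-induced slow growth of budding yeast raise OD600. Assay medium was yeast nitrogen base with ammonium sulphate and -URA supplement, pH 6.0, with 2% galactose.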
The depositor's hits bear a star; ? = inconclusive; · = not tested or not shown; & = joins results of further samples; [ ] = remark or other dose. Unless noted, calls follow the shape of the dose curve; as a rule, active = well fitted curve in the direction sought with a large enough effect; inconclusive = small, poorly fitted or top-dose-only effect, or another doubt; inactive = no such curve, though single readings can be large; an effect the other way counts as inactive or inconclusive. Potency is read from the fitted curve at half-maximal effect.

Values run as follows: MARV entry inh | Cruzain noTriton | SARS PLpro yeast | StopGo reporter | LASV entry inh | Cruzain inh Det | RE007 growth inh | NS1 inh
CC(=O)n1nc(-c2ccc(Cl)cc2)nc1NCc1ccco1
 : ? | 9% | 9% | 62%[activator] | -14% | -6.9% | 5% | -7%
Cc1ccc(/C=C/c2nc3ccccc3s2)s1
 : ? | -5% | -15% | ? | 6.3µM* | -10% | ? | -4%
CC(C)C[C@@H](CO)N1CCN(CCCc2ccccc2)CCC1=O
 : · | · | 0% | -17% | · | · | 9% | 1%
O=C(CN1C(=O)c2ccccc2S1(=O)=O)N1CCOCC1
 : ? | 4% | 5% | 76%[activator] | 7% | 3.0% | -1% | 4%
O=C1C(Cc2cccc([N+](=O)[O-])c2)S/C(=N/N=C/c2ccco2)N1c1ccccc1 (stereo not given)
 : -3% | 5% | -22% | -20% | 3% | -3.5% | 7% | 21%
O=c1c2c3c(sc2nc2n1CCCCC2)CCCC3
 : 19% | -3% | 4.5µM* | 37%[activator] | 0% | -4.1% | ? | -12%
Cc1cc(C)n(C(=O)CNC(=O)Cc2ccccc2)n1
 : 1% | -12% | 7% | -14% | 12% | -1.1% | 13% | 4%
Cc1cccn2c(=O)c3c(nc12)N1CCCCCC1C1(C3)C(=O)N(C)C(=O)N(C)C1=O (stereo not given)
 : ? | · | 1% | -15% | -16% | · | -5% | 1%
COc1ccc(-n2cnc3cc(C(=O)NC4CCCC4)ccc32)cc1
 : · | 10% | -6% | 1%&6% | 9%[46.1 µM] | -1.7% | -1% | ·
Cc1ccsc1C(=O)N1CCCC(CCC(=O)NCc2ccc(F)c(F)c2)C1 (stereo not given)
 : · | · | 0% | -2% | · | · | -11% | -5%
O=C(COc1ccccc1)N1CCN(CC(O)COc2ccccc2)CC1 (stereo not given)
 : -1% | 3% | -2% | -13% | 8% | 11% | -8% | -1%
COc1cccc(CNC(=O)c2n[nH]c3ccccc23)c1
 : 7%[46.1 µM] | · | -6% | 19% | ? | · | 5% | ·
CCCCNC(=O)CSc1nc2cc3c(cc2c(=O)n1CCCCCC(=O)NCc1ccc(OC)cc1)OCO3
 : · | 9% | · | -15% | 6%[46.1 µM] | 1.7% | · | ·
O=c1[nH]c(=O)n(-c2ccc(Cl)cc2)c(O)c1C=Nc1ccc(S(=O)(=O)Nc2nccs2)cc1
 : ? | -9% | 0% | 5% | 4% | -5.4% | 33% | 14%
Cc1ccccc1C(=O)N1CCc2ccccc2C1
 : -4% | 0% | -3% | · | 20% | 0.3% | -1% | -94%
CCC(C)NC(=O)C1c2ccccc2C(=O)N1Cc1ccccc1 (stereo not given)
 : -30%[46.1 µM] | · | 1% | 6% | 11%[46.1 µM] | · | -3% | -1%
Cc1ccc(C(=O)C(C)OC(=O)c2cc3cc([N+](=O)[O-])ccc3oc2=O)cc1 (stereo not given)
 : -3% | ? | -35% | · | -9% | -14% | 0% | -36%
CCCCc1[nH]c(=O)c(C#N)c2c1CCCC2
 : -5% | 13% | 1% | -20% | -5% | 1.0% | -4% | 10%
COc1ccc(NS(=O)(=O)c2cn(C)cn2)cc1Cl
 : · | · | 0% | -2% | · | · | 14% | 14%
CCCCn1c(O)c(N=NC(=O)c2ccncc2)c2cc(Br)ccc21
 : -11%[46.1 µM] | 24% | 0% | -16% | 4% | -1.9% | 4% | 1%
CCOc1ccc(CCNC(=O)c2[nH]c(C)c(C(C)=O)c2C)cc1OCC
 : -20%[46.1 µM] | · | 0% | 11% | -21%[46.1 µM] | · | 4% | ·
O=C(C1CC=CCC1)N1CCN(S(=O)(=O)c2ccc(F)cc2)CC1 (stereo not given)
 : -12% | · | 2% | -16% | -4% | · | 5% | ·
C(=Cc1c[nH]c2ccccc12)c1nccc2ccccc12
 : ? | · | · | -68% | ? | · | ? | ·
COc1ccccc1CNC(=O)C(=O)c1cn(CC(=O)N2CCOCC2)c2ccccc12
 : · | · | 9% | 18% | · | · | 5% | 0%
CCCCCCOC(=O)C(C#N)c1nc2ccccc2nc1N1CCN(CC)CC1 (stereo not given)
 : 4.6µM* | -1% | 2% | -28% | ? | -8.2% | 0% | -46%
Cc1cccc(Nc2nnc(SC/C(O)=C(\C#N)c3nc4ccccc4[nH]3)s2)c1C
 : -28% | -23% | 3% | ? | -1% | -7.3% | -11% | 28%
CCCN1C2CCCC1CC(NC(=O)c1ccccc1OC)C2 (stereo not given)
 : ? | · | -1% | -8% | -7%[46.1 µM] | · | 3% | 22%
COc1ccc(C(C)=O)cc1COC(=O)CCNS(=O)(=O)c1ccc(C(C)=O)cc1
 : · | · | ? | -24% | · | · | 10% | -9%
COc1ccccc1-c1cc(-c2cc(Cl)ccc2O)n[nH]1
 : 11% | 25µM* | -6% | 48%[activator] | 6% | 0.6% | -8% | 0%
CC(OC(=O)CCNS(=O)(=O)c1ccccc1)C(=O)Nc1ccc(S(=O)(=O)N2CCCCC2)cc1 (stereo not given)
 : -20% | · | · | -9% | -19% | · | -26% | ·
O=c1oc2ccccc2cc1-c1cn2cc(Cc3ccc(Cl)cc3)sc2n1
 : -23%[46.1 µM] | 8% | · | 58%[activator] | ? | -0.5% | · | ·
Cc1ccccc1NC(=O)Cn1nnc(C(=O)NCc2cccs2)c1N
 : ? | ? | · | -10% | -17%[46.1 µM] | 1.6% | · | ·
Cc1c(Cl)cccc1NC(=O)N1CCCN(c2nc(-c3ccccc3)ns2)CC1
 : ? | · | -2% | ? | ? | · | 40% | ?
O=C1NC(=O)C2C3c4ccccc4C(c4ccccc43)C12 (stereo not given)
 : 2% | -6% | 6% | · | -14% | 0.4% | -5% | -7%
CCC(C(=O)N1CCc2ccccc2C1)n1nc(C)n2c(cc3occc32)c1=O (stereo not given)
 : -11% | 3% | 3% | -13% | -13% | 3.6% | -3% | 11%
CC(NC(=O)COC(=O)CN1C(=O)c2ccccc2C1=O)c1ccccc1 (stereo not given)
 : ? | · | 1% | -8% | 12% | · | -23% | ·
COc1ccc(Cc2nc3ccc(C(=O)NCCn4cccn4)cc3o2)cc1
 : 15% | · | 12% | -11% | ? | · | -8% | -16%
O=C(Cn1cnc2c(nnn2-c2ccccc2)c1=O)N1CCC(Cc2ccccc2)CC1
 : -4% | ? | 1% | 0% | · | -4.9% | 1% | -18%
CCCCCC(C)NC(=O)c1ccoc1C (stereo not given)
 : 2% | 4% | · | 3% | -4% | 0.3% | ? | -27%
FC(F)(F)c1cccc(OCCN2CCN(Cc3ccccc3)CC2)c1
 : ? | -6% | -34% | 3% | 10% | 3.3% | -3% | 5%
COc1ccc(-c2nnc3n2CCCCC3)cc1
 : 10%[46.1 µM] | · | 0% | -15% | 24% | · | 7% | 8%
CCc1nn(C(C)C(=O)NCCc2ccccc2)c(=O)c2cc3occc3n12 (stereo not given)
 : · | · | 1% | 10% | · | · | 1% | -3%
O=c1c2ccccc2nnn1CSc1ncnc2ccccc12
 : -2% | 3% | 12% | ? | 9% | -2.3% | 2% | -1%
CCCN(CC1CC1)S(=O)(=O)c1ccc(S(N)(=O)=O)cc1
 : · | -7% | 2% | -25% | · | 6.5% | 4% | 3%
COc1ccc(Cl)cc1NS(=O)(=O)c1c(C)[nH]c(C)c1C(=O)N1CCCCC1
 : · | · | 2% | 81%[activator] | · | · | -2% | -20%
CC(=O)c1ccc(N2CCN(Cc3nc4ccccc4[nH]3)CC2)cc1
 : 0%[46.1 µM] | · | 0% | 11% | 1%[46.1 µM] | · | 14% | -23%
CCCN(CCC)C(=O)Cn1c(=O)c2sccc2n2c(=S)sc(-c3ccccc3)c12
 : · | · | 1% | -15% | · | · | 16% | 6%
CCC1=C(c2cc(OC)c(OC)c(OC)c2)C2(CCCC2)C(=O)O1
 : · | · | -10% | -24% | · | · | -9% | -14%
CCNC(=O)O/N=C1\CCCCC1c1ccc([N+](=O)[O-])cc1[N+](=O)[O-] (stereo not given)
 : · | · | -2% | -16% | · | · | -11% | -4%
O=C(COC(=O)CCCSc1nc2ccccc2[nH]1)NC(=O)NC1CCCC1
 : -3% | 5% | 5% | 0% | ? | 0.1% | 5% | -8%
Cc1ccc(NC(=O)Cn2c(=O)n(CCCCC(=O)NCc3ccc4c(c3)OCO4)c(=O)c3ccccc32)cc1
 : 2%[46.1 µM] | 8% | · | -21% | ? | -3.0% | · | ·
CCn1nc(C)c(CCN(C)C(=O)Nc2cccc(Cl)c2C)c1C
 : · | 2% | · | 19% | 0%[46.1 µM] | 2.3% | · | ·
CCc1ccc(N2CC(C(=O)OCC(=O)Nc3cc(C)on3)CC2=O)cc1 (stereo not given)
 : 3% | 0% | -1% | 7% | 5% | 8.5% | 11% | -7%
Cc1cc(C(c2cc(C)c(N)c(C)c2)c2ccco2)cc(C)c1N
 : ? | · | · | -8% | -15% | · | -15% | ·
NC(=O)[C@@H]1CCCNc2c(I)cc([N+](=O)[O-])cc2C(=O)N[C@@H](CO)C(=O)N[C@@H](Cc2ccc(O)cc2)C(=O)N1
 : -14% | -4% | -8% | -16% | 0% | -4.6% | 22% | -10%
COc1ccc(Cl)cc1NC(=O)CCCn1c(C)c2cnn(-c3ccccc3)c(=O)c2c1C
 : -25%[46.1 µM] | ? | · | -28% | -1%[46.1 µM] | -6.0% | · | ·
CCOC(=O)c1c(NC(=O)CSc2ccccc2C(=O)O)sc(C)c1C
 : 0% | · | 0% | -6% | 5% | · | 10% | 13%
Cc1cc(C)c2c(CC(=O)NN(C)C)coc2c1
 : -26%[46.1 µM] | · | 1% | -2% | 13%[46.1 µM] | · | 1% | 5%
O=C(N/N=C/c1ccc(O)cc1)NC12CC3CC(CC(C3)C1)C2
 : 17% | · | -8% | -17% | ? | · | 13% | -11%
O=C1CC(C(=O)N(c2ccc(F)cc2)C(C(=O)NC2CCCC2)c2ccccn2)CS1 (stereo not given)
 : 9% | -5% | -12% | -2% | 3% | 0.2% | -6% | -16%

Source: PubChem
